Six1-Eya2 inh = qHTS Assay for Inhibitors of the Six1/Eya2 Interaction; Homeobox protein SIX1 (Homo sapiens) + Protein phosphatase EYA2 (Homo sapiens), …; AlphaScreen GST-Six1/His-Eya2 binding, biochemical; active compounds read low; control for the full effect not named in the record; activity change, % (test concentration not listed); 360,000 tested, 0.56% active; in the data active = activity change below about -65%; inconclusive = about -30% to -65%; inactive = above about -30%; note: % is set by controls: 0 for no effect and ±100 for the full control effect
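AlphaScreen luminescence read after one hour at 37 °C in darkness. Pin-transferred compounds met GST-Six1 and His-Eya2 protein (5X stock 250 nM/500 nM) plus glutathione donor and Ni-chelate acceptor beads (5X, 50 ug/mL).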
PINK1 modulator = A Quantitative High throughput Screen to Identify Chemical Modulators of PINK1 Expression; PINK1 immunofluorescence, high-content cytometry, 24 h; Potency, µM (series often up to 76.6 µM), for inactives: top-dose activation (PINK1 increase), hits mostly activators; 410,000 tested, 0.2% active; AID 624263, 2012; active = well fitted activation curve with a large enough effect; inconclusive = small, poorly fitted or top-dose-only effect; inactive = flat fitted curve, though single readings scatter; cell line not stated here;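 note: potency is the fitted concentration of half-maximal effect; % of control where 0% means no effect; nearly all actives have a fitted effect of over 65% in size; a mitochondrial uncoupler was the plate control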
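PINK1 protein, normally rapidly degraded, was detected by immunofluorescence after 24 hour compound treatment of a stable cell line. Titration data (5 concentrations) came from laser-scanning cytometry, with CCCP-treated wells as controls.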
TRPML1 agonist = qHTS for Agonists of the Human Mucolipin Transient Receptor Potential 1 (TRPML1); Mucolipin-1 (Homo sapiens), Q9GZU1; TRPML1-expressing cells, Ca2+ dye fluorescence, FDSS; host cell line not named in the record; reference of the full effect not given here; activation, % (concentration not given with the values); 410,000 tested, 0.12% active; in the data active = activation above about 50%; inconclusive = about 30% to 50%; inactive = below about 30%; note: 0% is about no effect; the text of the record puts the active cut at 80%
Target sequence (Q9GZU1 whole entry, looked up): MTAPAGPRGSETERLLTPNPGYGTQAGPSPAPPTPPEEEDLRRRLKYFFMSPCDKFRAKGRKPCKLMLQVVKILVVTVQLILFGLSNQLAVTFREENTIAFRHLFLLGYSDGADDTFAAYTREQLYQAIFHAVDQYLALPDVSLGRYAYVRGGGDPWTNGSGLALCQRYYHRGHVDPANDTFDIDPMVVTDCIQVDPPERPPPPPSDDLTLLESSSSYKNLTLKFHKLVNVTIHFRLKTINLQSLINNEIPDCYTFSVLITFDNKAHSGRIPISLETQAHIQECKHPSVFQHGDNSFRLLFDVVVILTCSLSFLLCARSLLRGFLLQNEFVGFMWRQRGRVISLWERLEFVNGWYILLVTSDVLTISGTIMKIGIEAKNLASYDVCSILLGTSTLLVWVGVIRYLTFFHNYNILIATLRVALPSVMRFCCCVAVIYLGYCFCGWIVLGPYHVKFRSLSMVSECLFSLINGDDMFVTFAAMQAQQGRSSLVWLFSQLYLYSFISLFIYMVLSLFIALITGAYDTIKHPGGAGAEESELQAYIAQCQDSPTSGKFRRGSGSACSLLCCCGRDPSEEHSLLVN
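TRPML1-DL cells, Tet-induced overnight (~16 h, 37 degrees C), loaded 45-90 min at room temperature with Ca8 no-wash calcium dye plus quencher. FDSS fluorescence: 10 s baseline, compound pin-transfer, 110 s agonist read, then EC80 54-4 (4uM final) and 110 s antagonist read.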
CtBP-E1A inh = qHTS Assay for Inhibitors of the CtBP/E1A Interaction. AID 651724, 2012. CtBP / adenovirus E1A interaction (AlphaScreen). AlphaScreen GST-E1A/His-CtBP binding, 1536-well; active compounds read low; control for the full effect not named in the record. 340,000 tested, 0.49% active. activity change, % (concentration not given with the values); in the data active means activity change below about -65%; inconclusive means about -30% to -65%; inactive means above about -30%; note: % is set by controls: 0 for no effect and ±100 for the full control effect
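Homogeneous bead-based format: GST-tagged E1A captured on glutathione donor beads, His-tagged CtBP on nickel acceptor beads; compounds precede bead addition by 2 h at 37 °C.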
D2 ag = Beta-Arrestin HTS for Positive Allosteric Modulators of the Human D2 Dopamine Receptor: Agonists. D(2) dopamine receptor (Homo sapiens), P14416. DiscoveRx PathHunter D2 beta-arrestin, luminescence, 90 min; 100% = 57 uM dopamine signal. activation, % (test concentration not listed). 360,000 tested, 0.084% active. AID 624465, 2012; in the data active = activation above about 40%; inconclusive = about 15% to 40%; inactive = below about 15%; note: compound concentration not given in the record; the text of the record calls up to 30% inactive
Target sequence (P14416 whole entry, looked up): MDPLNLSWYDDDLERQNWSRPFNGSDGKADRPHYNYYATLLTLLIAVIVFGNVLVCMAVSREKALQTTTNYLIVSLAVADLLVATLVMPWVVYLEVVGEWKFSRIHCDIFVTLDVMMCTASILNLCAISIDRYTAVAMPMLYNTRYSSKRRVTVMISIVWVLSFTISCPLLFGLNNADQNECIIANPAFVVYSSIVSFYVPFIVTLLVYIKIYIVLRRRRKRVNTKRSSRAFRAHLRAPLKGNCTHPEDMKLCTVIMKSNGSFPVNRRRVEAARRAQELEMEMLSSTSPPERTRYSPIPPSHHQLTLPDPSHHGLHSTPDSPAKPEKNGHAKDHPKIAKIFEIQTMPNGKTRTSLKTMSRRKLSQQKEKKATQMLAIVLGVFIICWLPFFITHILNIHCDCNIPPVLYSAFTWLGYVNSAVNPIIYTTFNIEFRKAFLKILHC
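Agonist mode: compounds alone added to overnight-plated D2 PathHunter cells for 90 min at 37 C, with 57 uM final dopamine (EC100) defining full response. Beta-arrestin recruitment detected by chemiluminescent reagent, read after 1 h at ambient temperature.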
TRPML1 blocker = qHTS for Inhibitors of the Human Mucolipin Transient Receptor Potential 1 (TRPML1); Mucolipin-1 (Homo sapiens), Q9GZU1; TRPML1-inducible cells, Ca2+ dye fluorescence, FDSS; active compounds read low; inhibition of EC80 agonist-evoked calcium signal; 390,000 tested, 0.02% active; activity change, negative = inhibition, % (no concentration beside the values); AID 624415, 2012; in the data active means activity change below about -50%; inconclusive means about -30% to -50%; inactive means above about -30%;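 note: stimulus is agonist 54-4 at its EC80 concentration; % is set by controls: 0 for no effect and ±100 for the full control effect; compound concentration not given in the record; the text of the record puts the active cut at -80%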
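Tet-induced TRPML1-DL cells loaded with Ca8 no-wash calcium dye were read kinetically on FDSS. Compound addition was followed by EC80 agonist 54-4 (4 uM final); inhibition was read over 110 s.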
Numbers without * were called inactive; [ ] = dose if it differs, or a comment. No enrichment for hits; overall some 1% were active at least once.

Results for COc1ccc(NC(=O)Cn2nnc(-c3ccccc3NC(=O)c3cccs3)n2)cc1 ?
Six1-Eya2 inh: -1; PINK1 modulator: 6.1%; TRPML1 agonist: -0.4; CtBP-E1A inh: 2; D2 ag: 0.8; TRPML1 blocker: 7

What do the screens show for `COc1ccc(-c2csc(NC(=O)CSC(C)C(=O)Nc3cc(C)on3)n2)cc1OC` (stereo unspecified)?
Six1-Eya2 inh: -10; PINK1 modulator: 1.2%; TRPML1 agonist: 1.6; CtBP-E1A inh: -19; D2 ag: 2.1; TRPML1 blocker: 3

How did CCOC(=O)c1ccc(NC(=O)CN2C(=O)CC(c3ccc(C)c(C)c3)=Nc3ccccc32)cc1 do in these assays?
PINK1 modulator: 1.9%; TRPML1 agonist: 0.5; TRPML1 blocker: -5

How did Cc1nnc(SCC(=O)NC(=O)NCc2ccco2)s1 do in these assays?
Six1-Eya2 inh: -5; PINK1 modulator: 0.4%; TRPML1 agonist: 0.7; D2 ag: -3.7; TRPML1 blocker: 4

How did CC(C)N(CCc1ccncc1)C(=S)Nc1cccc(Cl)c1 do in these assays?
Six1-Eya2 inh: -5; PINK1 modulator: 0.5%; TRPML1 agonist: -0.8; CtBP-E1A inh: 5; D2 ag: -3.2; TRPML1 blocker: 1

Results for O=C(CCNC(=O)c1ccccc1Cl)Nc1nccs1 ?
Six1-Eya2 inh: 6; PINK1 modulator: -0.6%; TRPML1 agonist: -1.0; CtBP-E1A inh: 2; D2 ag: 0.0; TRPML1 blocker: 1

Results for COC(=O)c1ccc(C2c3c(oc4cc(C)c(C)cc4c3=O)C(=O)N2c2ccccn2)cc1 (stereo unspecified) ?
PINK1 modulator: -1.3%; TRPML1 agonist: -0.5; TRPML1 blocker: -20

Results for C/C(=N\NC(=O)COc1cccc(Cl)c1)c1ccc2c(c1)OCCO2 ?
Six1-Eya2 inh: -11; PINK1 modulator: 5.0%; TRPML1 agonist: 1.4; CtBP-E1A inh: -1; D2 ag: 1.5; TRPML1 blocker: 20

Results for COc1ccc(-n2nc3cc(C)c(NC(=O)COc4cccc(C)c4)cc3n2)cc1 ?
PINK1 modulator: -0.1%; TRPML1 agonist: 0.1; TRPML1 blocker: 13

Results for CCc1nc2ccc(C(=O)Nc3cccc(OC)c3)cn2c1N(C)CCCc1ccccc1 ?
Six1-Eya2 inh: -10; PINK1 modulator: 1.1%; TRPML1 agonist: -0.7; CtBP-E1A inh: -9; D2 ag: -3.8

What do the screens show for `CCN(c1ccccc1)S(=O)(=O)c1ccc(C(=O)NCC(c2ccccc2OC)N2CCCC2)cc1` (stereo unspecified)?
Six1-Eya2 inh: 3; PINK1 modulator: 3.6%; TRPML1 agonist: 0.6; CtBP-E1A inh: -8; D2 ag: -3.6; TRPML1 blocker: -7

How did COC(=O)c1sccc1NC(=S)N(C)C1CCCCC1 do in these assays?
Six1-Eya2 inh: 3; PINK1 modulator: 0.1%; TRPML1 agonist: 1.2; D2 ag: 1.6; TRPML1 blocker: 32

How did O=C(CN1CCN(c2ccccn2)CC1)Nc1cccc(Cl)c1Cl do in these assays?
Six1-Eya2 inh: -5; PINK1 modulator: 0.2%; TRPML1 agonist: 0.0; CtBP-E1A inh: -2; D2 ag: 1.5; TRPML1 blocker: 1

How did COc1ccc(OCCn2cc(C=O)c3ccccc32)cc1 do in these assays?
Six1-Eya2 inh: -4; PINK1 modulator: -0.3%; TRPML1 agonist: 0.1; CtBP-E1A inh: 3; D2 ag: 6.3; TRPML1 blocker: 15

Results for COC(=O)c1c(NC(=O)C2SC(=NC3CCCCC3)C(C(N)=O)=C2N)sc2c1CCCC2 (stereo unspecified) ?
Six1-Eya2 inh: -5; PINK1 modulator: -2.7%; TRPML1 agonist: 1.7; CtBP-E1A inh: 11; D2 ag: -2.7; TRPML1 blocker: -10

Results for CCOC(=O)Cn1nc(C)c2ccccc2c1=O ?
Six1-Eya2 inh: -3; PINK1 modulator: -0.5%; TRPML1 agonist: -0.3; CtBP-E1A inh: -1; D2 ag: -2.0; TRPML1 blocker: 0

What do the screens show for `Cc1ccc(C)c(Cn2c(=O)cc(C(F)(F)F)c3c(C)nn(C)c32)c1`?
PINK1 modulator: 1.3%; TRPML1 agonist: 1.9; TRPML1 blocker: -18

Results for CCOC(=O)c1sc(=S)n(C)c1NC(=O)c1ccc(F)cc1 ?
Six1-Eya2 inh: 0; PINK1 modulator: -1.7%; TRPML1 agonist: 0.1; CtBP-E1A inh: 0; D2 ag: -1.6; TRPML1 blocker: -5

Results for NNC(=O)Cn1c(-c2ccccn2)nc2ccccc21 ?
Six1-Eya2 inh: 2; PINK1 modulator: 0.0%; TRPML1 agonist: -0.9; CtBP-E1A inh: 2; D2 ag: 4.6; TRPML1 blocker: -1

How did Nc1ncnc(Sc2ccc(Cl)cc2)c1[N+](=O)[O-] do in these assays?
Six1-Eya2 inh: -1; PINK1 modulator: 0.8%; TRPML1 agonist: -0.6; CtBP-E1A inh: 0; D2 ag: -1.2; TRPML1 blocker: 9

Results for Cc1nnsc1C(=O)N/N=C/c1ccc(OC(F)(F)F)cc1 ?
Six1-Eya2 inh: 6; PINK1 modulator: 0.0%; TRPML1 agonist: -0.3; CtBP-E1A inh: 4; D2 ag: 0.0; TRPML1 blocker: -4

How did Cc1ccc(OCCC(=O)OCC(=O)c2c(N)n(C)c(=O)n(C)c2=O)cc1 do in these assays?
Six1-Eya2 inh: -2; PINK1 modulator: -0.6%; TRPML1 agonist: 0.8; CtBP-E1A inh: 0; D2 ag: -6.0; TRPML1 blocker: -8

Results for COc1ccc2c(C)c(CC(=O)N3CCN(C(=O)C4COc5ccccc5O4)CC3)c(=O)oc2c1 (stereo unspecified) ?
Six1-Eya2 inh: -5; PINK1 modulator: -0.2%; TRPML1 agonist: 2.3; D2 ag: -6.7; TRPML1 blocker: 38

How did CC(=C\C(=O)O)/C(=C/c1ccccc1)C(=O)O do in these assays?
Six1-Eya2 inh: 4; PINK1 modulator: -0.1%; TRPML1 agonist: -0.1; CtBP-E1A inh: 6; D2 ag: -0.8; TRPML1 blocker: 6

How did COCCCNC(=O)CCCn1c(=O)c2ccccc2n(Cc2cccc([N+](=O)[O-])c2)c1=O do in these assays?
Six1-Eya2 inh: 6; PINK1 modulator: -0.3%; TRPML1 agonist: 1.1; CtBP-E1A inh: 9; D2 ag: -3.6; TRPML1 blocker: -6

What do the screens show for `N=c1c(C(=O)NCc2ccc(F)cc2)cc2c(=O)n3ccccc3nc2n1Cc1cccnc1`?
Six1-Eya2 inh: 7; PINK1 modulator: inconclusive; TRPML1 agonist: -0.4; CtBP-E1A inh: 7; D2 ag: -3.3; TRPML1 blocker: -13

How did O=C(COC(=O)c1ccc(O)cc1O)NC12CC3CC(CC(C3)C1)C2 do in these assays?
Six1-Eya2 inh: -2; PINK1 modulator: 2.5%; TRPML1 agonist: 2.9; CtBP-E1A inh: 8; D2 ag: 3.3; TRPML1 blocker: -4

Results for Cc1ccc2cc(CCNC(=O)c3ccc(S(=O)(=O)N4CCOCC4)cc3)c(=O)[nH]c2c1 ?
Six1-Eya2 inh: 1; PINK1 modulator: -0.3%; TRPML1 agonist: 2.1; CtBP-E1A inh: 11; D2 ag: -5.2; TRPML1 blocker: -16

Results for CCC(=O)N1CCC(NC(=O)Nc2ccc(OC(F)(F)F)cc2)CC1 ?
Six1-Eya2 inh: 0; PINK1 modulator: 0.5%; TRPML1 agonist: -0.4; CtBP-E1A inh: 5; D2 ag: 5.3; TRPML1 blocker: 1

What do the screens show for `Cc1ccc(S(=O)(=O)Nc2ccc(N=Nc3ccc(O)cc3)cc2)cc1`?
Six1-Eya2 inh: -2; PINK1 modulator: 5.5%; TRPML1 agonist: 0.2; CtBP-E1A inh: -16; D2 ag: -7.4; TRPML1 blocker: -6

What do the screens show for `COC(=O)c1ccccc1-c1ccc(C(c2c(C)[nH][nH]c2=O)c2c(C)[nH][nH]c2=O)o1`?
Six1-Eya2 inh: -2; PINK1 modulator: 17%; TRPML1 agonist: -0.9; CtBP-E1A inh: -2; D2 ag: -4.0; TRPML1 blocker: -12

How did NC(=S)c1ccc(C(N)=S)o1 do in these assays?
Six1-Eya2 inh: -2; PINK1 modulator: 0.0%[38.3 µM]; TRPML1 agonist: -0.4; CtBP-E1A inh: -5; D2 ag: -2.0; TRPML1 blocker: -10

What do the screens show for `CCc1nnc2c3ccccc3nc(Nc3cc(C)cc(C)c3)n12`?
PINK1 modulator: 1.9%; TRPML1 agonist: 3.4; TRPML1 blocker: -5

Molecules listed so far with a thiophene ring, fused or not (3):
Results for COc1ccc(NC(=O)Cn2nnc(-c3ccccc3NC(=O)c3cccs3)n2)cc1 ?
Six1-Eya2 inh: -1; PINK1 modulator: 6.1%; TRPML1 agonist: -0.4; CtBP-E1A inh: 2; D2 ag: 0.8; TRPML1 blocker: 7

How did COC(=O)c1sccc1NC(=S)N(C)C1CCCCC1 do in these assays?
Six1-Eya2 inh: 3; PINK1 modulator: 0.1%; TRPML1 agonist: 1.2; D2 ag: 1.6; TRPML1 blocker: 32

Results for COC(=O)c1c(NC(=O)C2SC(=NC3CCCCC3)C(C(N)=O)=C2N)sc2c1CCCC2 (stereo unspecified) ?
Six1-Eya2 inh: -5; PINK1 modulator: -2.7%; TRPML1 agonist: 1.7; CtBP-E1A inh: 11; D2 ag: -2.7; TRPML1 blocker: -10

Screening results as filed in PubChem BioAssay.
